# USP2a inh: blocks human ubiquitin-specific protease USP2a. O75604. Potency, µM (doses to about 38.3 µM), for inactives: at the highest dose activity change, negative = inhibition, usual class: inhibitors. AID 927. 60,000 compounds, 0.1% hits. USP2a enzymatic assay, qHTS inhibition;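 further: potency means the concentration at half of the fitted maximal effect; nearly all actives have a fitted effect of over 60% in size; plate controls were DMSO for no effect and NEM full inhibition control for full effect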
# Target sequence (O75604 whole entry, looked up): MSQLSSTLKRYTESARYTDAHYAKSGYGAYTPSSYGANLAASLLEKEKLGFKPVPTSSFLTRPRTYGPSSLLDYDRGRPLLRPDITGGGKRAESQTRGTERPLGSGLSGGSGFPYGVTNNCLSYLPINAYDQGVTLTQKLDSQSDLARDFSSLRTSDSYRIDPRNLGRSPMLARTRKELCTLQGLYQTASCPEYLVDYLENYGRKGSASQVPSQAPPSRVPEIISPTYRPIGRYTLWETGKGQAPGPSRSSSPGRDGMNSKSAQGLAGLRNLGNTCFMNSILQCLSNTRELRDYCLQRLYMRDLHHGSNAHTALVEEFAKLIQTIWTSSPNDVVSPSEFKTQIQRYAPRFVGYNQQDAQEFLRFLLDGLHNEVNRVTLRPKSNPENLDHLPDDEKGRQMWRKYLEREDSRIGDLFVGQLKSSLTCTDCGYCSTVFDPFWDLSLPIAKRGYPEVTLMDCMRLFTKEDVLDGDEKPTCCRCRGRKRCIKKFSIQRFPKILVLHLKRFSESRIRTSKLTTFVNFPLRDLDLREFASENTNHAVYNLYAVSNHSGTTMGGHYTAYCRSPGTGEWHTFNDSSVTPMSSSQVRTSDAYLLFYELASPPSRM
#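 USP2 core (20nM final) preincubated 30 min RT with compound, then Ub-PLA2 20nM and NBD C6-HPC 20uM final added; buffer 20mM Tris-HCl pH 8.0, 2mM CaCl2. Fluorescence Ex 460/Em 535 read at 0 and 2.5 h; normalized to NEM.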
# BRCT PPI green: BRCA1 BRCT-phosphoprotein interaction inhibition; 75,000 compounds, 0.05% hits; Potency, µM (series often up to 76.9 µM), inactives show top-dose activity change, negative = inhibition, usual class: inhibitors; BRCA1 BRCT-phosphopeptide binding, green fluorescence polarization; AID 875; P38398;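 further: potency means the concentration at half of the fitted maximal effect; plate controls were peptide without protein for full effect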
#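 Fluorescence polarization: His-tagged BRCT (~35 kDa BRCA1 C-terminus, 250 nM) bound to 100 nM fluorescein-labeled phosphorylated 10-aa BACH1 peptide, pH 7.3 phosphate buffer with DTT and Tween 20. Compounds incubated 12 min at room temperature; inhibition read as lowered polarization.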
# FLuc inh: firefly luciferase inhibition; Potency, µM (top dose mostly 57.1 µM), for the others: at the highest dose activity change, negative = inhibition, most hits filed as inhibitors; 72,000 compounds, 2.2% hits; P08659; purified firefly luciferase, luminescence, 8 min; further: potency means the concentration at half of the fitted maximal effect; on the % scale 0 is the no-effect control and ±100 the full control effect; nearly all actives have a fitted effect of over 40% in size
#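 qHTS concentration-response profiling: light output of P. pyralis luciferase with luciferin and 10 uM ATP, imidazole buffer pH 7.2. Read by luminescence after 8-min room-temperature incubation.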
# Tau fil binding: tau filament binding | 71,000 compounds, 2% hits | Potency, µM (doses to about 57.1 µM), without a hit: at the highest dose activity change, negative = inhibition | P10636 | recombinant tau filaments, thioflavin S fluorescence, 15 h; filaments grown with octadecylsulfate alongside compound;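 further: potency means the concentration at half of the fitted maximal effect; on the % scale 0 is the no-effect control and ±100 the full control effect; actives lower thioflavin S fluorescence by blocking filaments or displacing dye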
#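 His-tagged recombinant human tau (exons 2, 3 and 10 included), 1 uM, was induced to fibrillize by 30 uM sodium octadecylsulfate with compound present. After 15 h at 37 C, thioflavine S fluorescence (ex 450, em 510 nm) was read.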
# ERK AVP inh: inhibitors of vasopressin-stimulated ERK signaling pathway. 72,000 compounds, 0.99% hits. HEK293-V1b, vasopressin-stimulated pERK AlphaScreen. AID 995. Potency, µM (titrated, usually from 57.5 µM), for the others: at the highest dose activity, negative = inhibition, actives largely listed as inhibitors; further: potency means the concentration at half of the fitted maximal effect; on the % scale 0 is the no-effect control and ±100 the full control effect; nearly all actives have a fitted effect of over 55% in size
#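 qHTS, compounds titrated on V1b-expressing HEK293 cells. Preincubation 30 min at 37C, vasopressin 25 nM for 5 min, lysis 10 min, bead incubation 5 hr at room temperature.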
# HEK293 cAMP cs: raises cAMP in parental HEK293 cells, TSHR agonist counter-screen | 73,000 compounds, 2.5% hits | parental HEK293 CNG cAMP sensor, membrane potential fluorescence | AID 938 | Potency, µM (doses to about 57.1 µM), for inactives: at the highest dose activation, actives largely listed as activators; further: potency means the concentration at half of the fitted maximal effect; % of control where 0% means no effect; nearly all actives have a fitted effect of over 55% in size
#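 Parental HEK 293 cells stably expressing a cAMP-gated CNG channel were loaded with membrane potential dye containing 100 uM RO 20-1724 for 60 min. Compound added for 30 min; depolarization read as fluorescence intensity at 590 nm.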
# BRCT inh red: BRCT-phosphoprotein interaction inhibition (red fluorophore) | AID 892 | BRCT-phosphopeptide binding, red fluorescence polarization | 75,000 compounds, 0.03% hits | Potency, µM (highest dose often 76.9 µM), without a hit: at the top dose activity change, negative = inhibition, usual class: inhibitors | P38398; further: on the % scale 0 is the no-effect control and ±100 the full control effect
#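 Fluorescence polarization: 100 nM His-tagged BRCA1 BRCT with 100 nM TAMRA-labelled phospho-BACH1 decapeptide, phosphate buffer pH 7.3 with 150 mM NaCl, DTT, 0.01% Tween 20; 12 min RT. Binding inhibition seen as FP decrease.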
# CRE-bla Fsk: CRE-bla signaling modulation under forskolin stimulation; AID 662; Potency, µM (doses to about 38.2 µM), without a hit: at the top dose activity change, negative = inhibition, usual class: activators; 71,000 compounds, 2.5% hits; CHO CRE-bla reporter (cAMP response element driving beta-lactamase), forskolin EC10, beta-lactamase ratio; active means well fitted activation curve with a large enough effect in the signal ratio, with a control signal flat, not every such curve was filed as active; inconclusive means small, poorly fitted or top-dose-only effect, or effect the other way, or a change in a side signal; the % refers to the signal ratio; further: potency means the concentration at half of the fitted maximal effect; % of control where 0% means no effect
#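 qHTS titration format; CRE-bla CHO reporter; stimulus EC10 NKH 477, a water-soluble forskolin. Read: CCF4 460/530 nm ratio. Potency expressed as AC50 for activators or inhibitors.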
# An asterisk follows results filed as active; i = inactive; ? = inconclusive; nt = not tested or not shown; & = joins results of further samples; [ ] = dose if it differs, or a comment. Unless noted, the call rests on the fitted dose curve; in most records, active means well fitted curve in the direction sought with a large enough effect; inconclusive means small, poorly fitted or top-dose-only effect, or another doubt; inactive means no such curve, though single readings can be large; an effect the other way counts as inactive or inconclusive. Only part of the results is shown; count on the stated rates, not on these rows.
SMILES,USP2a inh,BRCT PPI green,FLuc inh,Tau fil binding,ERK AVP inh,HEK293 cAMP cs,BRCT inh red,CRE-bla Fsk
COc1ccc(-c2nc3cnc(N(C)C)nc3n(Cc3cccs3)c2=O)cc1,115%[activator],-1.1%,2%[11.4 µM],59%,31%[activator],3%,-0.1%,?
CCNc1ncc2nc(-c3cc(F)cc(F)c3)c(=O)n(-c3ccccc3)c2n1,70%[activator],73%[activator],1%[11.4 µM],i,20%,16%,-1.6%,?
COC(=O)c1ccccc1NS(=O)(=O)c1ccc2c3c(cccc13)C(=O)N2,45%[activator],2.9%,1%,16µM*,-25%,-19%,0.7%,?
Cc1cc(-n2c(=O)c(C#N)cc3c(=O)n4cccc(C)c4nc32)no1,14%,-2.6%,2%,24%,-17%,-7%,1.2%,3.2µM*
COc1cc2cc(CN(C(=O)Nc3ccccc3)C3CCCC3)c(=O)[nH]c2cc1OC,31%[activator],-3.4%,0%,10%,-29%,-4%,-1.8%,?
CCNc1ncc2nc(CCc3ccccc3)c(=O)n(Cc3ccc(F)cc3)c2n1,136%[activator],44%[activator],1%[11.4 µM],26%,-8%,7%,-0.7%,?
COc1ccc2c(c1)[nH]c1c(=O)n(CCc3cnc[nH]3)cnc12,-3%,-2.0%,-4%,-5%,-12%,?,1.8%,?
O=C(CN1C(=O)c2cccc3cccc1c23)NCC1CCCO1 (configuration not stated),-5%,-2.9%,1%,8%,-7%,1%,0.1%,-9%
COc1cccc(Cn2c(=O)c(CCc3ccccc3)nc3cnc(N(C)C)nc32)c1,43%[activator],29%,1%[11.4 µM],22%,57%,?,2.6%,6.3µM*
CC(C)OC(=O)CC(=O)CSc1nc2c(cc1C#N)CCCC2,23%,2.1%,-23%,4%,-21%,7%,0.7%,?
O=C(c1ccc(CNS(=O)(=O)c2cccc(C(F)(F)F)c2)cc1)N1CCOCC1,12%,1.4%,0%,66%,-14%,-1%,0.0%,1%
CCOC(=O)c1cc2c(=O)n3ccccc3nc2n(Cc2ccccc2)c1=N,4%,-1.9%,0%,1.6µM*,5%,-20%,2.4%,-20%
CCOC(=O)c1c(NC(=O)C(F)(OC)C(F)(F)F)sc2c1CCN(C)C2 (configuration not stated),18%,3.9%,-1%,73%,11%,?,-2.6%,10µM*
CCOC(=O)c1ccc(NC(=O)CSc2nnc(-c3cccs3)n2C)cc1,3%,-2.0%,-2%,1%,?,3%,-3.8%,4%
Cc1ccc(C(=O)Nc2nc3c(s2)CCCC3)o1,2%,-3.3%,0%,8%,0%,4%,-0.5%,27%
O=c1c(-c2cc(F)cc(F)c2)nc2cnc(N3CCNCC3)nc2n1CCc1ccccc1,105%[activator],0.1%,1%[11.4 µM],19%,-4%,?,-1.4%,?
COCCn1c(=O)c(-c2ccc(OC)cc2)nc2cnc(N3CCNCC3)nc21,13%,-0.1%,1%[11.4 µM],80%,51%[activator],?,-1.5%,?
CN(C)C(=O)CSc1nnc(-c2cc(-c3cccs3)nc3ccccc23)o1,46%[activator],2.9%,2%,9%,?,14%,-0.4%,?
CCCCOCCCn1c(-c2ccco2)nc2nc3ccccc3nc21,33%[activator],10%,-19%,2µM*,-13%,17%,-1.2%,13µM*
CCCN1CCCc2cc(CN)ccc21,-5%,-0.2%,-2%,?,-18%,-27%,-2.8%,?
COc1ccc2cc(CN(CCCN3CCOCC3)Cc3nnnn3C3CCCCC3)c(=O)[nH]c2c1,nt,-0.4%,5%,15%,-2%,?,0.6%,?
COc1ccc(-n2c(=O)c(-c3ccccc3)nc3cnc(N4CCOCC4)nc32)cc1,54%[activator],-0.9%,0%[11.4 µM],3%,6%,7%,1.9%,3.2µM*
COC(=O)C1=CO[C@@H](C)[C@H]2CN3CCc4c([nH]c5ccccc45)[C@@H]3C[C@H]12,14%&26%[17.1 µM],4.1%&1.5%[34.4 µM],3%&8%[25.5 µM],479%&6%[25.6 µM],9%&-15%[25.7 µM],-3%&15%[25.6 µM],-0.6%&-0.2%[34.4 µM],?
CC1(C)CC(=O)c2cc(OCC(=O)O)ccc2O1,-9%,-5.7%,0%,8%,2%,12%,-0.4%,-3%
O=c1c(-c2ccccc2)nc2cnc(N3CCOCC3)nc2n1C1CC1,17%,1.3%,-2%[11.4 µM],21%,-1%,11%,-1.7%,?
CN(C)c1ncc2nc(-c3ccc(F)cc3)c(=O)n(CCC#N)c2n1,53%[activator],3.2%,0%[11.4 µM],179%,-6%,6%,-2.4%,1.6µM*
CCC(C)(C)n1nnnc1CN(Cc1cccs1)Cc1cc2cc(OC)ccc2[nH]c1=O,nt,5.0%,1%,26%,-5%,16µM*,-5.7%,?
CCC(C)(C)n1nnnc1C(c1cc2ccc(OC)cc2[nH]c1=O)N1CCc2ccccc2C1 (configuration not stated),36%[activator],-1.2%,-7%,40%,-6%,-2%,-0.5%,?
O=C1NC(=O)[C@@H]2C3c4ccccc4C=CN3[C@H](C(=O)c3cccs3)[C@H]12 (some centres not stated),11%,-4.6%,25µM*,99%,-16%,-3%,-0.6%,-6%
O=c1c(-c2ccc(Cl)cc2)nc2cnc(N3CCNCC3)nc2n1Cc1ccc(F)cc1,8%,-2.0%,2%[11.4 µM],nt,-17%,-17%,-2.9%,?
COC(=O)c1c(C#N)c(N)nc2c1CCCC2,-6%,-1.3%,0%,-9%,-15%,0%,0.9%,10µM*
COCCn1c(=O)c(-c2ccccc2)nc2cnc(N3CCN(C)CC3)nc21,23%,0.0%,2%[11.4 µM],-12%,25%,11%[0.457 µM],0.8%,?
Cc1nc2nc3c(cn2n1)C(=O)CC(c1ccccc1)C3 (configuration not stated),6%,-1.6%,-1%,85%,-17%,?,2.0%,-14%
COc1cccc(C2=CC(c3ccc(N(C)C)cc3)n3ncnc3N2)c1 (configuration not stated),23%,8.3%,-2%,454%,26%,10%,0.0%,?
Nc1c(S(=O)(=O)c2cccs2)c2nc3ccccc3nc2n1CC1CCCO1 (configuration not stated),31%[activator],7.1%,2%,3%,-3%,?,-1.2%,21%
COCCn1c(N)c(C(=O)OCc2ccccc2)c2nc3ccccc3nc21,30%[activator],-0.9%,1%,2%,12%,23%,0.6%,10µM*
CCc1cc2c(CN3CCN(C)CC3)cc(=O)oc2cc1O,0%,-0.7%,1%,289%,24%,3%,1.0%,?
Cc1cccc(NC(=O)c2sc3nc(-c4ccc(F)cc4)cn3c2C)n1,34%[activator],11%,-4%,141%,25%,20µM*,1.3%,?
Cc1ccc(S(=O)(=O)c2cc3c(=O)n4cccc(C)c4nc3n(Cc3ccco3)c2=N)cc1C,13%,-12%,0%,99%,17%,0%,-7.1%,?
Cc1ccc(-c2cc(C(F)(F)F)c(C#N)c(SCCC#N)n2)o1,4%,1.9%,3%,-20%,-1%,18%,-0.8%,?
COc1ccc(-c2nc3cnc(Nc4cccc(OC)c4)nc3n(C[C@H]3CCCO3)c2=O)cc1,215%[activator],-2.7%,-2%[11.4 µM],107%,-2%,4%,-0.7%,?
CCn1c(=N)c(S(=O)(=O)c2ccc(F)cc2)cc2c(=O)n3ccccc3nc21,14%,0.0%,3%,i,-13%,-8%,-0.3%,2µM*
CCOc1cccc2cc(-c3nnc(NCc4ccco4)s3)c(=O)oc12,29%,-1.8%,-9%,186%,11%,-11%,1.6%,?
CN1CCN(c2ncc3nc(-c4ccccc4)c(=O)n(-c4ccccc4)c3n2)CC1,63%[activator],-7.8%,1%[11.4 µM],5%,-3%,-5%,-1.3%,?
COc1ccc2c3c([nH]c2c1)[C@H]1C[C@@H]2[C@@H](C[C@@H](O)[C@H](OC)[C@H]2C(=O)O)CN1CC3,nt,-8.9%[15.4 µM],0%[11.4 µM],29%[11.4 µM],3%[11.5 µM],?,-0.3%[15.4 µM],-6%[7.6 µM]
CN(C)c1ncc2nc(-c3cccs3)c(=O)n(CCC#N)c2n1,78%[activator],-28%,0%[11.4 µM],i,?,8%,0.5%,?

# Ordered by SMILES length (high to low): some entries from above
SMILES,USP2a inh,BRCT PPI green,FLuc inh,Tau fil binding,ERK AVP inh,HEK293 cAMP cs,BRCT inh red,CRE-bla Fsk
COc1ccc2c3c([nH]c2c1)[C@H]1C[C@@H]2[C@@H](C[C@@H](O)[C@H](OC)[C@H]2C(=O)O)CN1CC3,nt,-8.9%[15.4 µM],0%[11.4 µM],29%[11.4 µM],3%[11.5 µM],?,-0.3%[15.4 µM],-6%[7.6 µM]
Cc1ccc(S(=O)(=O)c2cc3c(=O)n4cccc(C)c4nc3n(Cc3ccco3)c2=N)cc1C,13%,-12%,0%,99%,17%,0%,-7.1%,?
CCn1c(=N)c(S(=O)(=O)c2ccc(F)cc2)cc2c(=O)n3ccccc3nc21,14%,0.0%,3%,i,-13%,-8%,-0.3%,2µM*
CN1CCN(c2ncc3nc(-c4ccccc4)c(=O)n(-c4ccccc4)c3n2)CC1,63%[activator],-7.8%,1%[11.4 µM],5%,-3%,-5%,-1.3%,?
Cc1cccc(NC(=O)c2sc3nc(-c4ccc(F)cc4)cn3c2C)n1,34%[activator],11%,-4%,141%,25%,20µM*,1.3%,?
COCCn1c(N)c(C(=O)OCc2ccccc2)c2nc3ccccc3nc21,30%[activator],-0.9%,1%,2%,12%,23%,0.6%,10µM*
CN(C)c1ncc2nc(-c3cccs3)c(=O)n(CCC#N)c2n1,78%[activator],-28%,0%[11.4 µM],i,?,8%,0.5%,?
CCc1cc2c(CN3CCN(C)CC3)cc(=O)oc2cc1O,0%,-0.7%,1%,289%,24%,3%,1.0%,?

# High-throughput results: PubChem, National Center for Advancing Translational Sciences (NCATS)
